A1 inh: inducers of caspase activity in MEF A1-2A-BIM cells, primary screen, A1 inhibitor project, cell-based, CaspaseGlo luminescence; AID 2241, 2010; actives 0.51% (n = 21,000); caspase-Glo luminescence, 3 h; percent of clofoctol signal, DMSO as zero; caspase activation, % (test concentration not listed);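 active = most replicate scores above 10, or exactly half above 10 with mean activity above 10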;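 also: effector caspase 3 and 7 activity cleaving a DEVD luciferin substrate; 50 nL library stock added to about 30 µL; numbers are from one replicate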
BJeLR viab HTS: BJeLR cell viability loss, primary screen, luminescence, CellTiterGlo ATP; actives 0.64% (n = 30,000); BJeLR fibroblasts viability, 48 h; HRASV12, hTERT and SV40 LT/ST transformed; viability loss activity score, % (concentration not given with the values); AID 2275, 2010; in the data active = viability loss activity score above about 50%; about a fifth of its hits are not listed in these tables;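 also: higher score means fewer live cells and less ATP luminescence; stock transfer was 50 or 100 nL into about 30 µL; 0% = vehicle wells and 100% = a reference killing control; one replicate is shown; the record names a cut of 85%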
* hit, by the source's call; x = not tested or not shown.

SMILES	A1 inh	BJeLR viab HTS
COc1ccc(Nc2c3c(nc4ccc(NC(=O)C5CC5)cc24)CCCC3)cc1OC	x	1.5
O=C(Nc1cccnc1)c1cc2c(=O)[nH]c3ccccc3c2s1	x	1.7
C[C@@H]1CN([C@@H](C)CO)C(=O)c2cc(N(C)C)ccc2O[C@H]1CN(C)S(C)(=O)=O	0.0	-1.8
O=C(Nc1ccccc1)Nc1csc2ccccc12	-1.3	0.9
N#Cc1cc(Br)ccc1N=C1CCCN1c1cccc(Cl)c1	-0.2	-3.8
O=S(=O)(c1ccc(Br)cc1)N1CCCCCC1	-1.5	0.5
Cc1nc2nc(SCC(=O)NC3CCCC(C)C3C)nn2c(C)c1Cc1ccccc1Cl (centres undefined)	x	-0.9
CNC[C@H]1Oc2ccc(NC(=O)NC3CCCCC3)cc2C(=O)N([C@H](C)CO)C[C@@H]1C	0.2	1.0
COc1ccc(CCN=Cc2ccc3c(c2)OCO3)cc1OC	-0.8	1.7
O=C(COc1ccc(Cl)cc1)NCc1nnc(SCC(=O)Nc2cccc(F)c2)o1	x	-3.2
O=C(c1ccc2c(c1)C(=O)N(Cc1ccco1)C2=O)N1CCOCC1	x	-1.1
CC1=NN(c2ccccc2)C(c2ccc(OCC(=O)NCCC3=CCCCC3)cc2)C1 (centres undefined)	x	-7.8
N#Cc1c(C(F)(F)F)cc(C2CC2)nc1SCCN1CCCCC1	0.3	0.2
Cc1ccc(OCC(=O)NCC(=O)n2nc(C)cc2C)cc1	x	0.9
CCCCN(CC)C(=O)Cn1cnc2ccc(S(=O)(=O)N3CCC(C)CC3)cc2c1=O	x	-4.1
C[C@H](CO)N1C[C@H](C)[C@H](CN(C)C(=O)Nc2cccc3ccccc23)Oc2ccc(NS(C)(=O)=O)cc2C1=O	-0.1	-3.4
Cc1nc(C(=O)/C=C/N(C)C)cs1	0.6	2.1
C[C@H](CO)N1C[C@H](C)[C@@H](CN(C)S(=O)(=O)c2ccccc2)Oc2c(NS(=O)(=O)c3ccccc3)cccc2C1=O	x	-0.6
C[C@H](CO)N1C[C@H](C)[C@H](CN(C)S(=O)(=O)c2cccs2)Oc2c(NS(C)(=O)=O)cccc2C1=O	x	-1.2
CC(C#N)(Nc1ccccc1)c1ccc(F)cc1 (centres undefined)	-0.8	0.9
O=C(CSc1nc2ccccc2o1)NCCOC12CC3CC(CC(C3)C1)C2	-0.6	4.5
Cc1noc(C)c1S(=O)(=O)Nc1ccc2c(c1)C(=O)N([C@H](C)CO)C[C@H](C)[C@@H](CN(C)Cc1ccncc1)O2	0.4	4.1
CCOC(=O)c1cnc2ccc(OCC)cc2c1N1CCN(c2ccccc2)CC1	-0.2	-5.4
CCN(CC)C(=S)Nc1ccsc1C(=O)OC	x	-0.5
C[C@H](CO)N1C[C@H](C)[C@H](CN(C)Cc2ccc(C(F)(F)F)cc2)Oc2c(NC(=O)Nc3ccc(F)cc3)cccc2C1=O	x	-3.6
c1ccc(COc2cccc(CNn3cnnc3)c2)cc1	1.2	2.1
Cc1ccc(S(=O)(=O)N(C)C[C@@H]2Oc3ccc(NC(=O)Nc4cccc5ccccc45)cc3C(=O)N([C@@H](C)CO)C[C@H]2C)cc1	0.6	4.2
CSc1ccc(C2N[C@@H](C(=O)O)C(C)(C)S2)cc1 (some centres undefined)	-0.4	2.3
C[C@@H]1CN([C@@H](C)CO)C(=O)c2cc(NC(=O)Cn3cnnn3)ccc2O[C@@H]1CN(C)Cc1ccc(Cl)c(Cl)c1	-0.2	-3.8
N#CCSc1nc2c(sc3ccccc32)c(=O)n1C1CCCCC1	-0.2	-5.9
COCCN1C(=O)c2ccccc2C(C(=O)NCCc2cccc(C)c2)C1c1c[nH]c2ccccc12 (centres undefined)	x	-4.3
C=CCN(C(=O)c1cc2cc3cc(OC)ccc3nc2s1)c1ccccc1	x	0.6
O=C1c2ccccc2-c2nn(C(=O)Cc3ccccc3)c3cccc1c23	0.8	5.0
CCc1ccccc1NC(=O)CCSc1nc2n[nH]c(C)c2c(=N)n1-c1cccc(Cl)c1	-0.7	0.5
COc1cc(C(C)/C=C(/C)CC(=O)O)oc(=O)c1C (centres undefined)	-0.1	2.9
COc1ccc(CN(C)C[C@H]2Oc3ccc(NC(=O)Nc4cccc5ccccc45)cc3C(=O)N([C@@H](C)CO)C[C@H]2C)cc1	0.7	-1.2
Cc1cc(C)n2nc(SC(C)C(=O)NCc3ccccc3Cl)nc2n1 (centres undefined)	0.8	-0.9
CCOC(=O)CCSc1nc(C)c2ccccc2n1	-0.8	9.5
Cc1ccc(S(=O)(=O)Nc2ccc3c(c2)C(=O)N([C@@H](C)CO)C[C@H](C)[C@@H](CN(C)Cc2ccc4c(c2)OCO4)O3)cc1	-0.5	-2.6
CCOC(=O)/C(C#N)=C1/CCCN1	0.4	6.1
N#CC(C#N)=C(Nc1ccc(Br)cc1)SCc1ccc(F)cc1	-1.4	40
CCC(C(=O)NC1CCCC1)n1c(SCc2ccc(C)cc2)nc2ccncc21 (centres undefined)	-0.3	-5.7
Cc1noc(C)c1NC(=O)N(C)C[C@H]1Oc2c(NC(=O)c3ccncc3)cccc2C(=O)N([C@H](C)CO)C[C@H]1C	x	1.1
COc1ccc(S(=O)(=O)Nc2ccc3c(c2)C(=O)N([C@@H](C)CO)C[C@@H](C)[C@H](CN(C)Cc2ccc(C(=O)O)cc2)O3)cc1	-0.3	10
COC(=O)c1ccc(S(=O)(=O)NCc2ccco2)o1	0.2	3.8
O=C(Cn1c(SCc2cccc(C(F)(F)F)c2)nc2ccncc21)NCCC1=CCCCC1	0.2	7.5
CNCCC=C1c2ccccc2CCc2ccccc21	0.1	8.6
CC(C)CCN=CC1=C(O)CC(c2ccccc2)CC1=O (centres undefined)	0.3	7.0
O=C(CCSCc1ccc(Cl)cc1)N1CCN(c2ccccc2)CC1	-0.9	3.1
C[C@@H]1CN([C@H](C)CO)C(=O)c2cc(NS(=O)(=O)c3ccc(Cl)cc3)ccc2O[C@@H]1CN(C)Cc1ccc(Cl)c(Cl)c1	-0.4	-6.6
The list continues:
SMILES	A1 inh	BJeLR viab HTS
Cc1ccc(S(=O)(=O)N(C)C[C@@H]2Oc3c(NC(=O)c4ccncc4)cccc3C(=O)N([C@@H](C)CO)C[C@@H]2C)cc1	x	4.1
CCOC(=O)CNc1n[nH]c(=O)[nH]c1=O	0.5	-7.7
Cc1onc(-c2ccccc2Cl)c1C(=O)OC(c1ccccc1)C(F)(F)F (centres undefined)	-0.8	1.8
COc1ccc(CCNC(=S)NC(=O)c2ccc(Cl)cc2Cl)cc1OC	-1.3	-0.9
C[C@@H]1CN([C@@H](C)CO)C(=O)c2cccc(NC(=O)C3CCCCC3)c2O[C@H]1CN(C)Cc1ccncc1	x	-0.5
C[C@H]1CN([C@@H](C)CO)C(=O)c2cc(NC(=O)C3CC3)ccc2O[C@@H]1CN(C)C	-0.2	-1.0
C[C@@H]1CN([C@@H](C)CO)C(=O)c2cc(NC(=O)CCN3CCOCC3)ccc2O[C@H]1CN(C)Cc1ccc2c(c1)OCO2	-0.4	3.3
C[C@@H]1CN([C@@H](C)CO)C(=O)c2cc(NC(=O)Cn3cnnn3)ccc2O[C@H]1CN(C)CC1CCCCC1	-0.2	-1.0
O=C(NCCN1CCNC1=O)c1ccc2nccnc2c1	0.6	0.4
Cc1noc(C)c1NC(=O)N(C)C[C@@H]1Oc2ccc(NS(=O)(=O)c3cn(C)cn3)cc2C(=O)N([C@@H](C)CO)C[C@@H]1C	-0.7	-0.4

One compound at a time, as listed above:
Cc1ccc(S(=O)(=O)N(C)C[C@@H]2Oc3ccc(NC(=O)Nc4cccc5ccccc45)cc3C(=O)N([C@@H](C)CO)C[C@H]2C)cc1 across the screens: A1 inh = 0.6; BJeLR viab HTS = 4.2
CCOC(=O)c1cnc2ccc(OCC)cc2c1N1CCN(c2ccccc2)CC1 across the screens: A1 inh = -0.2; BJeLR viab HTS = -5.4

(listing goes on)
SMILES	A1 inh	BJeLR viab HTS
CC(C)c1ccc(NS(=O)(=O)Cc2ccccc2)cc1	-0.1	1.4
Cc1noc(C)c1NC(=O)Nc1ccc2c(c1)C(=O)N([C@H](C)CO)C[C@H](C)[C@H](CN(C)C(=O)NC(C)C)O2	-0.2	-0.1
O=S(=O)(Nc1ccc(N2CCCCC2)cc1)c1ccccc1	-0.3	0.5
COc1ccc(S(=O)(=O)Nc2ccc3c(c2)C(=O)N([C@H](C)CO)C[C@H](C)[C@@H](CN(C)C(=O)Nc2ccc4c(c2)OCO4)O3)cc1	-0.1	3.1
COc1ccc(NCC(=O)n2c3ccccc3c3ccccc32)cc1	x	4.0
C[C@@H]1CN([C@H](C)CO)C(=O)c2cccc(NC(=O)C3CCCCC3)c2O[C@@H]1CN(C)C(=O)Nc1ccc2c(c1)OCO2	x	0.3
CNC[C@H]1Oc2c(NS(=O)(=O)c3ccc(OC)cc3)cccc2C(=O)N([C@H](C)CO)C[C@@H]1C	x	1.3
C[C@@H]1CN([C@@H](C)CO)C(=O)c2cc(NC(=O)Cc3cn(C)c4ccccc34)ccc2O[C@H]1CN(C)S(=O)(=O)c1ccc(F)cc1	1.0	-3.2
CCOC(=O)c1cc2c(C)n(-c3ccccc3)c(C)c2cc(C(=O)OCC)c1=O	x	-1.1
CC(C)CCN(Cc1ccco1)C(=O)c1oc(=O)c2ccccc2c1-c1ccccc1	x	0.0

Seven successive records from above, for reference:
SMILES	A1 inh	BJeLR viab HTS
CC(C)c1ccc(NS(=O)(=O)Cc2ccccc2)cc1	-0.1	1.4
Cc1noc(C)c1NC(=O)Nc1ccc2c(c1)C(=O)N([C@H](C)CO)C[C@H](C)[C@H](CN(C)C(=O)NC(C)C)O2	-0.2	-0.1
O=S(=O)(Nc1ccc(N2CCCCC2)cc1)c1ccccc1	-0.3	0.5
COc1ccc(S(=O)(=O)Nc2ccc3c(c2)C(=O)N([C@H](C)CO)C[C@H](C)[C@@H](CN(C)C(=O)Nc2ccc4c(c2)OCO4)O3)cc1	-0.1	3.1
COc1ccc(NCC(=O)n2c3ccccc3c3ccccc32)cc1	x	4.0
C[C@@H]1CN([C@H](C)CO)C(=O)c2cccc(NC(=O)C3CCCCC3)c2O[C@@H]1CN(C)C(=O)Nc1ccc2c(c1)OCO2	x	0.3
CNC[C@H]1Oc2c(NS(=O)(=O)c3ccc(OC)cc3)cccc2C(=O)N([C@H](C)CO)C[C@@H]1C	x	1.3

(further entries)
SMILES	A1 inh	BJeLR viab HTS
CN(Cc1ccccc1)C(=O)c1cnn(-c2ccccc2)c1-n1cccc1	-0.2	10
COc1ccc(/C=C2\CCc3ccccc3C2=O)cc1CN1CCOCC1	1.0	-3.8
O=C(CCSc1nc(-c2ccco2)cc(C(F)(F)F)n1)Nc1ccccc1	x	4.9
O=C(c1nc2ncccn2n1)N(Cc1ccccc1)Cc1ccccc1	-0.3	-0.3
C[C@@H]1CN([C@@H](C)CO)C(=O)c2cc(NS(=O)(=O)c3ccc(F)cc3)ccc2O[C@H]1CN(C)Cc1ccc(C(F)(F)F)cc1	0.0	3.5
CN1c2ccccc2C(C)(C)C12Cc1cc(NS(=O)(=O)c3ccc(Cl)cc3)ccc1O2 (centres undefined)	x	0.3
O=C1/C(=C/c2ccc(N3CCOCC3)cc2)Cc2ccccc21	x	-4.6
O=C1/C(=C/c2cn[nH]c2-c2ccc(F)cc2)CS/C1=C\c1cn[nH]c1-c1ccc(F)cc1	x	2.2
Cc1ccc(CNC(=S)NCCO)cc1	x	-0.2
O=C(Nc1ccccc1)Nc1ccc(Cl)cc1SCc1ccccc1	2.0	-0.8
Cc1ccc(S(=O)(=O)N(C)C[C@@H]2Oc3ccc(NS(=O)(=O)c4cn(C)cn4)cc3C(=O)N([C@H](C)CO)C[C@H]2C)cc1	0.5	-0.4
O=C(NCCc1ccc(Cl)cc1)c1ccc2c(c1)ncn2C1CCCC1	0.8	-1.3
C[C@@H]1CN([C@@H](C)CO)C(=O)c2cccc(NC(=O)Nc3ccc(F)cc3)c2O[C@@H]1CN(C)Cc1ccc(C(=O)O)cc1	x	3.7
COC(=O)C(Cc1csc2ccc(Cl)cc12)NC(=O)c1ccc(C(F)(F)F)cc1 (centres undefined)	1.7	-4.0
C[C@@H]1CN([C@@H](C)CO)C(=O)c2cccc(NC(=O)NC3CCCCC3)c2O[C@@H]1CN(C)Cc1ccc(Cl)c(Cl)c1	x	1.9
O=C(NC1CCCC1)c1c[nH]c2ccc(S(=O)(=O)Nc3ccccc3F)cc2c1=O	x	-5.5
Cc1noc(C)c1NC(=O)N(C)C[C@H]1Oc2c(NC(=O)NC(C)C)cccc2C(=O)N([C@H](C)CO)C[C@H]1C	x	2.1
COc1cccc(-c2cc(C(=O)N3CCN(C(=O)c4ccco4)CC3)on2)c1	-1.3	-3.5
Cc1cc2c(cc3c(SCc4ccccc4)nncn32)o1	0.3	-0.1
N#Cc1sc2sc(C#N)c(-c3ccco3)c2c1N	-0.1	-3.1
C[C@H](CO)N1C[C@H](C)[C@@H](CN(C)Cc2ccc(C(=O)O)cc2)Oc2ccc(NC(=O)CCC(F)(F)F)cc2C1=O	0.7	1.1
Cc1ccc(S(=O)(=O)NCC2OCCc3ccccc32)cc1 (centres undefined)	0.5	-7.9
C[C@H]1CN([C@@H](C)CO)C(=O)c2cccc(NC(=O)Nc3ccc(F)cc3)c2O[C@@H]1CN(C)Cc1ccc(-c2ccccc2)cc1	x	-5.4
O=C(O)CNc1nc(-c2ccccc2)nc2ccccc12	-0.1	0.7
CN(CCO)C(=O)c1ccc2c(c1)C(=O)c1ccccc1-2	-0.7	-4.9
COc1cc(-c2nnc(SCC(=O)N3CCCCC3C)o2)cc(OC)c1OC (centres undefined)	x	-2.0
O=C1CSc2ccc(C(=O)NCc3c(F)cc(F)cc3F)cc2N1	1.1	-1.4
O=C(O)/C=C/C(=O)NC1CC1	-0.5	-0.7

Compound activity as filed in PubChem BioAssay.

A portion of the library; count on the stated rates, not on these rows.
